Beta cell apopt – beta cell apoptosis inhibition | INS-1E cytokine-induced death, ATP luminescence, 48 h; percent of positive-control rescue, neutral wells zero | protection from apoptosis, % (test concentration not listed) | 0.8% of 300,000 active | AID 435005;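 active = all replicates at 75% or more, or half of them and the mean; inconclusive = half reach 75% but not the mean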;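 also: 0% = cytokine-treated negative control wells and 100% = positive control rescue; higher means more ATP so stronger rescue from cytokine killing; wells of about 40 µL received 100 nL stock; the first replicate is given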
Calb FLC – affects C. albicans growth with fluconazole; 0.57% of 300,000 active; growth inhibition, % (concentration not given with the values); C. albicans CaCi-2 (fluconazole-resistant clinical isolate) + fluconazole, Alamar Blue growth, 48 h;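 active = most replicates above 75%; inconclusive = exactly half above 75%; inactive = most below 75%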;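 also: all wells also contain fluconazole at 8 µg/ml as a sub-toxic cotreatment; 0% = median of DMSO wells and 100% = median of geldanamycin control wells; wells of about 8 µL received 7.5 nL stock; the first replicate is given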
LANA-H2B inh – blocks KSHV LANA binding to histone H2A/H2B; 0.6% of 320,000 active; inhibition, % (test concentration not listed); AID 2629; cell-free LANA-H2A/H2B peptide, fluorescence polarization; in the data active = inhibition mostly above about 10%, no sharp cut-off; inactive = mostly below about 6.7%;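 also: stock transfer was 7.5 nL into about 10 µL; 0% = median of vehicle wells and 100% = median of positive control wells; one replicate is shown; the record names a cut of 25% in any replicate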
UCH37 inh – human UCH37 deubiquitinating enzyme inhibition. inhibition, % (test concentration not listed). 0.33% of 330,000 active. purified proteasome/UCH37, Ub-AMC cleavage fluorescence. Q9Y5K5;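 active = mean of two replicates above 20%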;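 also: 0% = compound-free wells with enzyme and 100% = wells lacking proteasome; stock transfer was 100 nL into about 20 µL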
Target sequence (Q9Y5K5 whole entry, looked up): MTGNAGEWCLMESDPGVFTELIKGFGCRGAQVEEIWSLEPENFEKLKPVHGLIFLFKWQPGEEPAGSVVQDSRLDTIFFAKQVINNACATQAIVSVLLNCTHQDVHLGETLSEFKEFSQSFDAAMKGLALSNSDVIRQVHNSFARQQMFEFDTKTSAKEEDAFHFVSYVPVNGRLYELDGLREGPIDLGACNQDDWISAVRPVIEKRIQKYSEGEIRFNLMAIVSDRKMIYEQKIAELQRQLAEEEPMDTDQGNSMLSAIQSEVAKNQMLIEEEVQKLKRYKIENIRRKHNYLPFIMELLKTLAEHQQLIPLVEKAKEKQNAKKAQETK
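Schedule: 30 min plus 25 min, room temperature / Material: human UCH37 within purified proteasomes / Technique: AMC fluorescence intensity at 355/460 nm / Buffer or medium: pH 7.4 Tris-HCl (50 mM) with ovalbumin, ATP-MgCl2, DTT / Controls: wells without proteasome as full block, compound-free enzyme plus substrate as uninhibited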
T cruzi repl – T. cruzi replication inhibition; T. cruzi beta-gal in NIH3T3, luminescence, 90 h; inhibition, % (no concentration beside the values); 1.4% of 300,000 active;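 active = mean inhibition across valid replicates above about 55%, limit read from the data; inconclusive = mean below that limit but half or more replicates reach it; inactive = mean below it, under half of replicates reach it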;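 also: signal also drops with host cell toxicity which is not excluded here; 0% = plate median of DMSO wells and 100% = zero luminescence signal; higher percent means less beta-gal luminescence so fewer parasites; stock transfer was 50 nL into about 50 µL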
A1 inh – inhibitors of the anti-apoptotic protein A1, read as caspase activation; 0.066% of 330,000 active; MEF A1-2A-BIM cells, Caspase-Glo 3/7 luminescence, 3 h; percent of clofoctol response, vehicle zero; caspase activation, % (no concentration beside the values); AID 2462;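 active = over half of replicate activation scores above 10%, or exactly half above 10 with the replicate mean above 10; inconclusive = replicate mean below 10 yet half the replicates above 10; inactive = over half of replicates below 10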;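 also: wells of about 30 µL received 50 nL stock; many hits fall short of the cut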
B2AR ag – agonists of human beta-2 adrenergic receptor inducing internalization. P07550. Am2.2-beta2AR cells, FAP receptor internalization, flow cytometry; reference of the scale not given here. response, % (no concentration beside the values). 0.43% of 340,000 active;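 active = response above a set limit, near 3 SD of response in nonfluorescent compounds, cut at about 42% in these data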;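 also: stock transfer was 100 nL into about 11 µL; a reference agonist was the positive control; negative values mostly stem from fluorescent compounds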
Target sequence (P07550 whole entry, looked up): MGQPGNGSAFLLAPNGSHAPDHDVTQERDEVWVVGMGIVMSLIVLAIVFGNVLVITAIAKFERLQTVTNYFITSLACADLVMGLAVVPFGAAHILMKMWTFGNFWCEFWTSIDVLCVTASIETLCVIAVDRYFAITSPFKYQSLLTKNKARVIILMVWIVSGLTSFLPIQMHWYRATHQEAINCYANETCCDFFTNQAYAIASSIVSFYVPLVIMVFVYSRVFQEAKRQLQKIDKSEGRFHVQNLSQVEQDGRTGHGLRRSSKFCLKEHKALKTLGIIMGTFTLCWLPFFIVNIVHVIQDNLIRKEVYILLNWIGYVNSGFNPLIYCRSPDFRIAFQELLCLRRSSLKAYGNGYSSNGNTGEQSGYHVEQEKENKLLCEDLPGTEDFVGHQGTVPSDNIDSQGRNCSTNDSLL
RanGTP-Impb inh – inhibitors of RanGTP-importin-beta interaction, primary screen, biochemical, FRET, CFP-Ran, YFP-importin-beta, homogeneous; cell-free CFP-Ran/YFP-importin-beta FRET ratio; inhibition, % (concentration not given with the values); 1.1% of 300,000 active;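 active = most replicates above 15%; inconclusive = exactly half above 15%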;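 also: 0% = DMSO wells and 100% = Ran loaded with GDP instead of GTP; wells of about 40 µL received 100 nL stock; the first replicate is given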
* = called active by the depositor; i = inactive; ? = inconclusive; . = no result given. Random draw from the library; any-hit rate near 4.3%.

SMILES	Beta cell apopt	Calb FLC	LANA-H2B inh	UCH37 inh	T cruzi repl	A1 inh	B2AR ag	RanGTP-Impb inh
Cc1ccc(-c2cc(C(=O)NCCCn3ccnc3)no2)cc1	-1	13	-4.7	3.0	-2	1.2	-1	?
CCC(=O)Nc1cccc(-c2nc3ccccc3c(=O)o2)c1	2	3	-3.9	-8.2	-24	-0.1	-7	-6.4
COc1cccc(NC(C)C(=O)Nc2cc([N+](=O)[O-])ccc2Cl)c1 (stereo not given)	-2	-7	0.3	2.1	-7	0.7	-1	2.1
CC(C)n1nnc2ccccc2c1=O	-8	-8	2.4	-1.8	-8	2.4	-4	2.3
C[C@@H]1NC(=O)N(c2ccc(F)cc2)C1=O	-3	-1	-10	3.3	-5	-0.5	-3	1.6
CN(CCC1CCOCC1)C(=O)CC1C(=O)NCCN1Cc1ccoc1 (stereo not given)	0	-12	3.7	-1.4	-13	-0.2	2	3.5
COc1ccc(NC(=O)COc2coc(CN3CCN(c4ccccc4)CC3)cc2=O)cc1	.	0	-1.8	1.9	-1	1.1	3	?
Cc1ccccc1N(CC(N)=O)S(C)(=O)=O	0	2	14	5.3	-5	0.3	3	1.3
Cc1cc(C(=O)NCCCN2CCOCC2)n(-c2ccccc2)n1	-4	5	3.8	8.6	3	0.0	-5	6.6
O=C(COC(=O)c1ccc(Br)cc1)NCCN1C(=O)CSC1=O	-7	-8	-2.6	3.6	-22	0.7	2	-1.0
Cc1ccc(NC(=O)Cn2ccsc2=N)cc1S(=O)(=O)N(C)C	3	0	-5.5	-0.3	-7	0.1	-7	0.1
COC(=O)CSc1nc(C)c(C(C)=O)cc1C#N	1	?	1.0	3.9	-9	-0.7	-5	2.3
c1ccc(C2(Cn3ccc4ccccc43)OCCO2)cc1	114*	-7	0.3	2.1	-12	0.1	7	-0.1
Clc1ccc(OCCN2CCN(c3ncnc4sccc34)CC2)cc1	106*	100*	0.2	2.8	-19	-0.8	-14	.
CCC(=O)N1CCc2cc(S(=O)(=O)N3CCCCC3CC)ccc21 (stereo not given)	4	-1	6.2	1.8	-5	0.1	-8	1.3

An excerpt of these results, as comma-separated lines.
mol,Beta cell apopt,Calb FLC,LANA-H2B inh,UCH37 inh,T cruzi repl,A1 inh,B2AR ag,RanGTP-Impb inh
C[C@@H]1NC(=O)N(c2ccc(F)cc2)C1=O,-3,-1,-10,3.3,-5,-0.5,-3,1.6
CN(CCC1CCOCC1)C(=O)CC1C(=O)NCCN1Cc1ccoc1 (stereo not given),0,-12,3.7,-1.4,-13,-0.2,2,3.5

Going on with the list:
SMILES	Beta cell apopt	Calb FLC	LANA-H2B inh	UCH37 inh	T cruzi repl	A1 inh	B2AR ag	RanGTP-Impb inh
Cc1cc(C)n2nc(CC(=O)NC3CCCC(C)C3C)nc2n1 (stereo not given)	-4	24	-5.6	4.3	5	-0.1	-18	-2.5
COc1ccc(C(CNC(=O)C(=O)NC2CCCC2)N2CCN(C)CC2)cc1 (stereo not given)	-1	-7	3.0	0.3	-12	0.0	8	4.1
Cc1ccc(Cl)c2c1NC(=O)C2(O)CC(=O)c1ccc(Br)cc1 (stereo not given)	-10	22	-6.4	8.7	-4	0.4	10	1.1
N#Cc1ccccc1S(=O)(=O)N1CCN(C(=O)CCC2CCCC2)CC1	2	.	7.2	0.5	.	0.5	-2	.
O=c1cc(NS(=O)(=O)c2ccccc2)nc(SCc2ccccc2Cl)[nH]1	.	23	-3.7	7.0	?	-0.9	0	-0.6
COc1ccc2oc(C(=O)OCC(=O)NC3(C#N)CCCC3)c(C)c2c1	4	-4	0.5	-49	3	-0.2	-8	0.5
O=C(NC1CCCCC1)C1CN(S(=O)(=O)c2ccccc2)CCN1S(=O)(=O)c1ccccc1 (stereo not given)	1	16	-4.7	2.9	21	0.2	-2	1.7
CCOC(=O)c1[nH]c2ccc(Br)cc2c1NC(=O)CCN1CCN(C(=O)OCC)CC1	4	-6	0.6	2.8	19	-0.4	3	1.8
COc1cc(/C=C2\SC(=O)N(CCNC(=O)c3c(C)noc3C)C2=O)cc(OC)c1OC	3	.	-0.2	3.5	.	-0.6	20	.
CCN(CC)S(=O)(=O)c1ccc(C)c(NC(=O)COc2ccc(Cl)cc2Br)c1	4	4	.	0.5	-2	-0.1	-8	-1.3
Cn1cnc2cc(NC(=O)c3ccco3)ccc21	-8	2	2.0	2.5	-8	-0.5	-26	-1.1
CCCCn1c(=O)c(CCC(=O)OC(C)C(=O)Nc2cccc(Cl)c2Cl)nc2ccccc21 (stereo not given)	5	-3	2.2	0.1	0	-0.9	-1	0.7
COc1ccccc1CCNS(=O)(=O)c1cn(C)c(=O)n(C)c1=O	-1	-10	0.6	3.1	-4	0.2	10	2.6
CCOC(=O)C(C)Sc1nnc(Cc2cc(=O)[nH]c(=O)[nH]2)n1-c1ccc(Cl)cc1 (stereo not given)	.	-2	4.4	4.6	1	-0.9	-6	-1.1
Cc1ccc(Cl)cc1NC(=O)CN1C(=O)NC2(CCCCCC2)C1=O	2	.	1.6	5.0	.	0.2	-7	.
COC(=O)Cn1c(=O)c2c(nc3n2CC(C)CN3Cc2ccccc2)n(C)c1=O (stereo not given)	3	30	0.0	5.2	-36	0.5	-7	6.1
COc1ccc(NC(=O)CCOc2cc(C)ccc2C)cc1S(=O)(=O)N1CCCCC1	0	.	2.3	4.2	.	-0.4	-3	.
COc1ccc(/C=N/NC(=O)CCNc2n[nH]c(=O)[nH]c2=O)c(OC)c1	-1	15	-6.7	.	-27	-0.8	-1	0.5
CSCCC(NS(=O)(=O)c1ccc(C)cc1)C(=O)N1CCN(S(=O)(=O)c2ccc(F)cc2)CC1 (stereo not given)	.	7	-1.6	2.2	15	0.0	3	6.7
O=C(NCC(c1ccco1)N1CCN(c2ccc(F)cc2)CC1)C(=O)NC1CC1 (stereo not given)	-1	4	6.6	0.3	-7	-0.1	-5	-0.5
CCOC(=O)c1sc(NC(=O)CSc2nc3ccccc3o2)c(C(=O)OCC)c1C	-2	7	-0.7	-0.9	16	-0.2	8	2.7
O=C(c1cccs1)N(Cc1ccc(F)cc1)C1CCS(=O)(=O)C1 (stereo not given)	1	-12	-5.4	1.4	-12	0.0	3	6.0
Brc1ccc(C2=CSC3=NCCN23)cc1	-3	-35	4.2	2.1	5	-0.4	-2	3.1
COc1ccc(OCC(=O)Nc2ccc3oc(-c4ccncc4)nc3c2)cc1	-9	37	-1.4	-2.9	-11	-1.9	13	2.5
Cc1sc2nc(COC(=O)CNC(=O)c3ccc(C(C)(C)C)cc3)[nH]c(=O)c2c1C	-2	-30	-1.3	-3.9	-12	1.0	0	-1.3
CC(C)C(=O)Nc1ccc(NC(=O)c2cccc3c(Br)cccc23)cc1	-2	2	-0.2	0.3	-8	0.8	-3	5.5
C=C[C@@H]1c2ccccc2N(S(=O)(=O)c2ccc(C)cc2)[C@H](c2ccccc2)C1(C#N)C#N	33	.	0.7	1.0	.	-0.1	3	.
CCn1c(=O)c(C(=O)Nc2ccc(C)cc2)c(O)c2ccccc21	21	-5	2.7	-355	20	0.4	1	-1.7
Cc1ccc(C)c(-n2ccnc2SCC(=O)Nc2cccc(S(=O)(=O)NC3=NCCC3)c2)c1	-1	.	5.3	0.3	.	-0.7	-6	.
Cc1ccc(NC(=O)C2C3CCC(O3)C2C(=O)O)c(Br)c1 (stereo not given)	7	-5	-1.3	3.0	-17	-4.8	-3	5.3
CC(NC(=O)c1ccccc1NC(=O)CSc1nnnn1C)c1ccccc1 (stereo not given)	-4	-1	1.6	-0.3	2	-0.7	2	-0.4
COc1ccccc1-c1nn(-c2ccccc2)cc1C(=O)N1CCc2ccccc2C1	-14	.	2.0	-0.2	.	1.2	-5	.
O=C(Nc1ccccc1C(F)(F)F)c1cccnc1	-6	-8	2.7	2.9	-12	0.5	7	1.0
O=C(Nc1cccc(C(F)(F)F)c1)c1cc(-c2cccs2)on1	-4	-27	-4.5	1.7	-4	-0.2	5	1.9
COc1cc(OC)c2c(c1)O/C(=C\c1ccccc1)C2=O	0	5	-0.6	-6.7	19	-2.7	-2	-3.4
Nc1c(Cl)cc(Cl)cc1C(=O)OCC(=O)N1CCCC1	.	16	.	i	-8	.	5	9.7
O=C(COC(=O)c1ccncc1)Nc1ccc2c(c1)OCO2	-4	.	-2.2	3.1	.	0.0	2	.
CN1CCOc2ccc(S(=O)(=O)NCCc3ccc(Cl)cc3)cc21	-1	-1	8.4	1.5	-4	1.1	-5	-2.4
O=C(O)C1CCCCC1C(=O)Nc1ccc(Cl)cc1Cl (stereo not given)	-4	41	5.7	3.5	-34	-0.6	8	5.9
COc1ccc(N(CC(=O)N/N=C/c2ccccc2F)S(=O)(=O)c2ccccc2)cc1	-2	-2	1.6	.	-6	-0.1	19	-4.6
COC(=O)c1ccc(S(N)(=O)=O)o1	-1	-6	1.9	0.8	-9	0.9	0	-2.8
CCCCn1c(N)c(N(CC(C)C)C(=O)C2CC(=O)N(c3ccc(C)cc3)C2)c(=O)[nH]c1=O (stereo not given)	-5	9	-2.2	-1.7	4	0.0	-3	-0.9
CCOC(=O)NC1(NCc2ccccc2)Oc2ccccc2O1	-2	-2	1.1	-4.2	-27	-0.3	10	-1.4
C#CCOCCOCCOCCNc1nc(N2CCN(C(=O)[C@H](CCCN=C(N)N)n3cc(C(N)[C@@H](C)CC)nn3)CC2)nc(N2CCN(C(=O)[C@H](CCCCN)n3cc([C@@H](N)[C@H](C)CC)nn3)CC2)n1 (stereo not given in full)	4	.	0.3	1.4	.	-0.4	-1	.
CCOc1ccc(NC(=O)CN(C)C(=O)c2cc(-c3ccc(OC)cc3)nc3ccccc23)cc1OCC	5	-6	.	-81	12	-0.3	14	1.9
O=[N+]([O-])c1cc(S(=O)(=O)N2CCCC2)ccc1NCCc1ccccc1	-4	-2	1.5	2.4	12	0.1	4	?
CCc1ccc(OC(=O)/C=C/c2ccco2)cc1	14	-2	-5.2	1.9	-4	-0.1	-7	0.3
CCCNC(=O)Cn1cnc2sc(C(=O)NCCN(CC)CC)c(C)c2c1=O	.	-10	3.7	5.2	14	-0.2	-5	-5.3
CCCCCCOC(=O)C[N+](C)(C)CCOC1CC2CCC1(C)C2(C)C (stereo not given)	123*	103*	-9.7	0.7	72*	-0.6	-7	5.2
O=S(=O)(Nc1ccc(S(=O)(=O)Nc2nccs2)cc1)c1ccc(Br)cc1	-1	1	-4.7	-0.9	-9	0.5	1	6.6
COC(=O)/C(=C/Nc1ccccc1)[N+](=O)[O-]	.	?	0.1	8.1	-6	0.6	2	-3.1
O=C(CCCOc1ccccc1)NCCc1ccccc1	-22	-17	-2.9	0.9	-9	-0.3	-2	1.1
CCOc1ccc2oc(C(=O)OC(C(=O)NC(N)=O)C(C)C)c(C)c2c1 (stereo not given)	-12	0	5.9	-29	5	-0.5	-13	4.3
CCCC(=O)Nc1ccc(NC(=O)c2ccco2)c(OC)c1	-4	-8	-1.3	7.0	-6	0.4	-10	-0.7
COc1ccc(N2CC(C(=O)N3CCC4(CC3)CC(=O)c3ccccc3O4)CC2=O)cc1 (stereo not given)	-6	6	-2.7	-29	-7	0.8	-8	-0.5
Cc1ccc(S(=O)(=O)NCCn2cnc([N+](=O)[O-])n2)cc1	4	0	-1.7	0.3	60*	-0.4	6	1.2
